Bfl-1 displacement: displacement of Bid BH3 peptide from Bfl-1 – biochemical, fluorescence polarization, FITC-Bid, mouse, primary screen (AID 432); displacement, % at 20 µM, or IC50 in µM where a hit was titrated; FITC-Bid BH3 peptide fluorescence polarization displacement; higher % means a stronger effect; 64,000 compounds, 0.02% hits; in the data active means a potency from the dose series; inactive means the rest, 99 in 100 with displacement below about 15%; further: strong numbers were not always called active
Spn PMK inh: inhibitors of Streptococcus pneumoniae phosphomevalonate kinase. inhibition, % at 10 µM. purified PMK, PK/LDH-coupled NADH absorbance 340 nm. 65,000 compounds, 0.49% hits;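 active means top-ranked compounds by inhibition in the single 10 µM screen, taking a fixed number of the strongest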;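 further: 0% = full reaction with DMSO carrier and 100% = background rate without enzyme reaction; no value below 0 was filed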
Spn DPM-DC inh: inhibitors of Streptococcus pneumoniae diphosphomevalonate decarboxylase; AID 556; calls only at 10 µM; purified DPM-DC, PK/LDH coupled NADH fluorescence; 65,000 compounds, 0.49% hits;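 active means the 320 compounds with the highest percent inhibition in the single-dose primary screen, excluding strongly autofluorescent ones, cut at about 32% in these data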;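 further: kinetic rate of NADH fluorescence loss reporting ADP formed by the decarboxylase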
LYP phosphatase: LYP phosphatase inhibitors, primary screen, biochemical, DiFMUP fluorescence, recombinant catalytic domain, 10 µM (AID 606); recombinant LYP catalytic domain, DiFMUP fluorescence; higher % means a stronger effect; inhibition, % at 10 µM, or IC50 in µM where a hit was titrated; 52,000 tested, under 10 active;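 active means IC50 under 40 µM in the dose-response test; inactive means IC50 of 40 µM or more, or never dose-tested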
HT1080 viability: cytotoxicity in HT1080 fibrosarcoma cells, cell-based, fluorescence readout (AID 620); HT1080 viability, fluorescence; higher % means a stronger effect; 87,000 compounds, 0.42% hits; cytotoxicity, % at 10 µM; hits with a dose series show EC50 in µM; in the data active means cytotoxicity above about 50%;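 further: cells exposed to compound overnight then 4 h with Alamar Blue; 0% = vehicle DMSO and 100% = killing control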
Spn PMK inh pilot replicates: further read-out of Spn PMK inh, marked with its call; inhibition, %; measured here: pilot screen replicates
Spn DPM-DC inh pilot screen %: further read-out of Spn DPM-DC inh, marked with its call; inhibition, %; measured here: pilot screen trials
* marks the source's active call; other numbers are inactive results; i = inactive; / = not tested or not shown; + = active, no number. An excerpt, so the mix of outcomes need not match the whole.

SMILES	Bfl-1 displacement	Spn PMK inh	Spn PMK inh pilot replicates	Spn DPM-DC inh	Spn DPM-DC inh pilot screen %	LYP phosphatase	HT1080 viability
CC(C)(C)c1ccc(C(O)CCCN2CCC(C(O)(c3ccccc3)c3ccccc3)CC2)cc1 (stereo unspecified)	6.0%	0.0	1.5	i	3.0	17.4%	93.4%*
CCOC(=O)C1CCN(C(c2cccnc2)c2c(NC(=O)c3ccco3)sc(C)c2C)CC1 (stereo unspecified)	6.1%	15.0	/	i	/	11.3%	4.6%
O=C(CCCN1CC=C(n2c(=O)[nH]c3ccccc32)CC1)c1ccc(F)cc1	3.9%	0.0	0.0	i	0.0	21.8%	4.1%
CCc1oc2ccccc2c1C(=O)c1cc(Br)c(O)c(Br)c1	-0.4%	8.0	3.5	i	8.0	23.1%	-20.2%
NS(=O)(=O)c1cc2c(cc1Cl)NC=NS2(=O)=O	-2.5%	0.0	4.0	i	3.0	14.2%	-11.6%
CCCCNC(=O)c1ccc2nc(-c3ccco3)c(-c3ccco3)nc2c1	31.0%	7.0	/	+	/	6.3%	-20.9%
COC(=O)c1cc(-c2ccccc2)n[nH]1	5.1%	5.0	/	i	/	16.0%	15.4%
Fc1cccc(CN2CCN(c3ncccn3)CC2)c1	-7.0%	6.0	/	i	/	/	2.8%
NC1C2CN(c3nc4c(cc3F)c(=O)c(C(=O)O)cn4-c3ccc(F)cc3F)CC12 (stereo unspecified)	1.9%	4.0	/	i	/	19.0%	4.0%
COc1ccc(C)cc1S(=O)(=O)Nc1cccnc1	-1.6%	10.0	4.0	i	2.5	6.9%	-13.8%

Arranged by the number under Spn PMK inh (lowest first): four of the compounds above.
| mol | Bfl-1 displacement | Spn PMK inh | Spn PMK inh pilot replicates | Spn DPM-DC inh | Spn DPM-DC inh pilot screen % | LYP phosphatase |
| --- | --- | --- | --- | --- | --- | --- |
| COC(=O)c1cc(-c2ccccc2)n[nH]1 | 5.1% | 5.0 | / | i | / | 16.0% |
| Fc1cccc(CN2CCN(c3ncccn3)CC2)c1 | -7.0% | 6.0 | / | i | / | / |
| CCc1oc2ccccc2c1C(=O)c1cc(Br)c(O)c(Br)c1 | -0.4% | 8.0 | 3.5 | i | 8.0 | 23.1% |
| CCOC(=O)C1CCN(C(c2cccnc2)c2c(NC(=O)c3ccco3)sc(C)c2C)CC1 (stereo unspecified) | 6.1% | 15.0 | / | i | / | 11.3% |

Back to the main list with the 7 entries that preceded the break.
SMILES	Bfl-1 displacement	Spn PMK inh	Spn PMK inh pilot replicates	Spn DPM-DC inh	Spn DPM-DC inh pilot screen %	LYP phosphatase	HT1080 viability
CCc1oc2ccccc2c1C(=O)c1cc(Br)c(O)c(Br)c1	-0.4%	8.0	3.5	i	8.0	23.1%	-20.2%
NS(=O)(=O)c1cc2c(cc1Cl)NC=NS2(=O)=O	-2.5%	0.0	4.0	i	3.0	14.2%	-11.6%
CCCCNC(=O)c1ccc2nc(-c3ccco3)c(-c3ccco3)nc2c1	31.0%	7.0	/	+	/	6.3%	-20.9%
COC(=O)c1cc(-c2ccccc2)n[nH]1	5.1%	5.0	/	i	/	16.0%	15.4%
Fc1cccc(CN2CCN(c3ncccn3)CC2)c1	-7.0%	6.0	/	i	/	/	2.8%
NC1C2CN(c3nc4c(cc3F)c(=O)c(C(=O)O)cn4-c3ccc(F)cc3F)CC12 (stereo unspecified)	1.9%	4.0	/	i	/	19.0%	4.0%
COc1ccc(C)cc1S(=O)(=O)Nc1cccnc1	-1.6%	10.0	4.0	i	2.5	6.9%	-13.8%
Cc1cccc(C)c1OCc1nnc2c3cnn(C)c3ncn12	-8.6%	7.0	2.5	i	2.0	-1.2%	-12.7%
CCOC(=O)C1CCCN(Cc2cc(Br)ccc2OC)C1 (stereo unspecified)	-2.2%	0.0	/	i	/	/	-5.1%
C1=CC2CC1CC2CN1CCN(c2ccccc2)CC1 (stereo unspecified)	-0.2%	2.0	4.0	i	0.5	-2.2%	-10.0%
COc1ccccc1-c1nc(NC(C)=O)n[nH]1	6.9%	0.0	/	i	/	3.7%	6.0%
Cc1ccc(SC(C)C(=O)Nc2ncn[nH]2)cc1 (stereo unspecified)	-4.4%	0.0	/	i	/	7.8%	0.6%
COc1cc(OC)c(OC)cc1CN(C)CCc1ccccn1	3.8%	18.0	2.5	i	0.0	0.4%	-1.3%
